# Source: PubChem
# A1 inh = caspase 3/7 activation in MEF A1-2A-BIM cells, primary screen, A1 inhibitor project, cell-based, luminescence, HTS; caspase activation, % (no concentration beside the values); 330,000 compounds, 0.066% hits; AID 2462, 2010; Caspase-Glo 3/7 luminescence, 3 h; percent of clofoctol response, vehicle zero;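 active means over half of replicate activation scores above 10%, or exactly half above 10 with the replicate mean above 10; inconclusive means replicate mean below 10 yet half the replicates above 10; inactive means over half of replicates below 10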;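 further: wells of about 30 µL received 50 nL stock; many hits fall short of the cut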
# HNF4A DNA FP = change in binding of human HNF4A to DNA, primary screen, biochemical, fluorescence polarization, FITC-DNA. 1 h. activity change, % at 10 µM. 360,000 compounds, 0.3% hits. AID 1224865, 2016; in the data active means activity change above about 30%, passing the limit was not always enough;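 further: controls were the assay level and a saturating level of protein; the project sought stronger binding though the title names inhibitors; some compounds called inactive have numbers as strong as hits; positive values seem to mean higher polarization but the record does not say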
# UCH37 inh = inhibitors of human UCH37 deubiquitinase, primary screen, biochemical, Ub-AMC cleavage, fluorescence; purified proteasome/UCH37; Ubiquitin carboxyl-terminal hydrolase isozyme L5 (Homo sapiens), Q9Y5K5; 330,000 compounds, 0.33% hits; inhibition, % (no concentration beside the values); AID 588478, 2011;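 active means mean of two replicates above 20%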;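 further: 0% = compound-free wells with enzyme and 100% = wells lacking proteasome; stock transfer was 100 nL into about 20 µL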
# Target sequence (Q9Y5K5 whole entry, looked up): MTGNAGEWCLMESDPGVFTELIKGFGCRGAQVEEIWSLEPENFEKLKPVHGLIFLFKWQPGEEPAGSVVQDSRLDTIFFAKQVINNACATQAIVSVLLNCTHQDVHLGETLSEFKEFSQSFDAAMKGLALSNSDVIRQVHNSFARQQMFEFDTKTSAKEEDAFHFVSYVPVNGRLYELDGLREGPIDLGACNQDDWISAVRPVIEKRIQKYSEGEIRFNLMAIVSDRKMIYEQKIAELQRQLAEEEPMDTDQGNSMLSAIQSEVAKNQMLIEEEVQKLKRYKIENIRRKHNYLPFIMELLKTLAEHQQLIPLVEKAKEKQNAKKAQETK
#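 system = Proteasome-associated human UCH37 deubiquitinase | amount = 0.15 nM proteasome as dispensed | medium = pH 7.4 Tris-HCl (50 mM) with ovalbumin, ATP-MgCl2, DTT | incubation = 30 min preincubation with enzyme, 25 min cleavage at room temperature | detection = AMC fluorescence 355/460 nm | read-out basis = percent inhibition | controls = no-proteasome and no-compound wells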
# B2AR ag = beta2AR agonists driving receptor internalization, primary screen, cell-based, FAP fluorogen, flow cytometry. Beta-2 adrenergic receptor (Homo sapiens), P07550. Am2.2-beta2AR cells; reference of the scale not given here. response, % (concentration not given with the values). 340,000 compounds, 0.43% hits. AID 504454, 2011;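 active means response above a set limit, near 3 SD of response in nonfluorescent compounds, cut at about 42% in these data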;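 further: stock transfer was 100 nL into about 11 µL; a reference agonist was the positive control; negative values mostly stem from fluorescent compounds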
# Target sequence (P07550 whole entry, looked up): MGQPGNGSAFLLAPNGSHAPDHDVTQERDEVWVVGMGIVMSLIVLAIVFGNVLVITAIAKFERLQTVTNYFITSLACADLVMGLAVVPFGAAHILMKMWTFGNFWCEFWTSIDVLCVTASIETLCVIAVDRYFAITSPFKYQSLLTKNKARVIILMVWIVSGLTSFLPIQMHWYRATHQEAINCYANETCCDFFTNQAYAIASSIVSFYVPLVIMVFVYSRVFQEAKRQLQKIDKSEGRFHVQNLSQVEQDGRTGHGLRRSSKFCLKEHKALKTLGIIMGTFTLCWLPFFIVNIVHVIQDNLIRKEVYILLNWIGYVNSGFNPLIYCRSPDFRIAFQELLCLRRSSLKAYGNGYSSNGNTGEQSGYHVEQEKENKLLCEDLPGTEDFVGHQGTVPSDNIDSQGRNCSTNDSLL
# Ecoli growth = E. coli growth inhibition, primary screen, OD600; Escherichia coli growth, 23 h; hits give low values; OD600 absorbance (test concentration not listed); 330,000 compounds, 0.21% hits; AID 1053175, 2014;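 active means OD600 absorbance below the run mean of sample wells minus 3.6 SD, in any replicate, cut at about 0.56 in these data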;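 further: stock transfer was 300 nL into about 60 µL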
# Vif TR-FRET = inhibitors of Vif binding to APOBEC3G peptide, primary screen, biochemical, TR-FRET, GST-Vif 1-94, biotin-A3G peptide, dose response retest (AID 1117319). TR-FRET GST-Vif / biotin-A3G peptide binding; higher % means a stronger effect; test concentration not given here; strong numbers were not always called active. 260,000 compounds, 0.57% hits. inhibition, %; hits with a dose series show IC50 in µM. Virion infectivity factor (Human immunodeficiency virus type 1 group M subtype B (isolate …;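 active means above the screen mean plus three standard deviations and confirmed in dose response; inconclusive means results disagree or hit not tested in dose response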;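 further: Vif residues 1-94 fused to GST binding biotinylated APOBEC3G peptide 110-148; 0% = full assay without inhibitor and 100% = GST in place of GST-Vif; retest series ran down from 100 µM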
# LANA-H2B inh = blockers of LANA interaction with H2A/H2B – biochemical, FP readout, HTS, primary screen; Protein LANA1 (Human herpesvirus 8 type P (isolate GK18)), Q9QR71; cell-free LANA-H2A/H2B peptide, fluorescence polarization; inhibition, % (concentration not given with the values); 320,000 compounds, 0.6% hits; AID 2629, 2010; in the data active means inhibition mostly above about 10%, no sharp cut-off; inactive means mostly below about 6.7%;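 further: stock transfer was 7.5 nL into about 10 µL; 0% = median of vehicle wells and 100% = median of positive control wells; one replicate is shown; the record names a cut of 25% in any replicate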
# The depositor's hits bear a star; u = inconclusive; x = not tested or not shown.
# The line under a structure holds: Vif TR-FRET	HNF4A DNA FP	LANA-H2B inh	UCH37 inh	B2AR ag	Ecoli growth	A1 inh
- CC1CCCCC1NC(=O)C1CCC(CNS(=O)(=O)c2ccccc2)CC1 (stereo not given)
  -3%	1.1	-0.3	2.9	-8	0.63	-0.4
- Cc1nnc(NC(=O)c2ccc3c(c2)NC(=O)CS3)s1
  -3%	-1.6	2.5	-2.2	6	0.72	-0.7
- O=[N+]([O-])c1sccc1CS(=O)(=O)c1ccccc1
  -4%	6.8	4.1	1.0	-6	0.65	-0.2
- Cc1nc2c(s1)sc1ccccc12
  -5%	1.5	0.4	0.3	3	0.68	0.0
- CCCCOc1ccc(C2CCC(C(C)=O)C(C)C2)cc1 (stereo not given)
  u	-0.2	-2.3	0.9	-3	0.65	0.5
- COc1ccc(-c2cc(C(=O)N3CCN(Cc4ccc5c(c4)OCO5)CC3)on2)cc1OC
  1%	-2.0	3.3	3.6	6	0.68	-1.1
- COc1cccc(NC(=O)Cn2nnc(C(=O)NCCc3ccccc3)c2N)c1
  x	11	3.5	2.3	1	0.7	1.3
- NC(=O)CC(NC(=O)c1ccccc1)c1ccc(NCC2CC2)c([N+](=O)[O-])c1 (stereo not given)
  x	1.0	2.0	1.7	-16	0.68	0.2
- COc1cc2[nH]c(=S)nc(NCc3ccc(C)cc3)c2cc1OC
  -7%	5.4	0.5	-8.1	-2	0.69	0.7
- CCCCn1c(=O)c(CCC(=O)OCC(=O)NC(=O)NCCC(C)C)nc2ccccc21
  0%	-2.9	2.0	-13	-8	0.63	-0.6
- Cc1ccc(CNC(=O)CCSCc2ccc(C)cc2)cc1
  4%	0.9	-0.5	7.5	-6	0.64	0.1
- Cn1c(N)c(C(=O)COC(=O)c2ccccc2C(=O)c2ccc(Cl)c([N+](=O)[O-])c2)c(=O)n(C)c1=O
  x	1.0	-0.2	3.6	38	0.68	2.0
- CCOC(=O)C1C(=O)C=C(c2ccccc2)CC1c1ccccc1 (stereo not given)
  -5%	1.8	x	0.9	-6	0.64	x
- Cn1nc(C(C)(C)C)c([N+](=O)[O-])c1C(=O)Nc1cccc2ccccc12
  -4%	0.5	0.1	6.8	1	0.65	1.3
- CCCCC(CC)C(=O)Nc1ccc(C)c(O)c1 (stereo not given)
  20%	-3.2	-7.7	7.5	9	0.67	0.6

# (more compounds)
# The line under a structure holds: Vif TR-FRET	HNF4A DNA FP	LANA-H2B inh	UCH37 inh	B2AR ag	Ecoli growth	A1 inh
- C=CCN(c1ccccc1)S(=O)(=O)c1cccc(C(=O)Nc2nc3ccccc3[nH]2)c1
  20%	-1.1	-8.2	-4.5	-10	0.72	-1.8
- NN=C1C(=O)c2cccc3cccc1c23
  1%	-0.7	x	1.3	6	0.67	x
- CCOC(=O)c1c(NC(=O)CSc2ncn[nH]2)sc(C(=O)NC)c1C
  0%	3.6	-1.9	-0.2	8	0.67	0.6
- Cc1ccc(S(=O)(=O)Oc2ccccc2/C=C2/SC(=O)NC2=O)cc1
  -12%	-5.2	3.5	3.5	21	0.67	1.7
- CC(=O)c1ccc(C#CC(C)(C)O)s1
  3%	-1.1	0.5	4.1	-4	0.76	0.0
- COC(=O)CSC1=C(C#N)C(c2cccc(F)c2)CC(=O)N1 (stereo not given)
  -2%	-0.3	-2.6	5.4	1	0.7	-0.2
- CNc1nc(C)c(C(=O)c2ccc(Cl)cc2)s1
  -4%	0.3	-8.5	4.5	9	0.7	-0.2
- O=C(COC(=O)c1ccc(Cl)nc1)NCc1ccc2c(c1)OCO2
  14%	2.4	2.9	0.8	8	0.63	0.6
- O=C(C[n+]1cccc(CO)c1)Nc1nc2ccccc2s1
  17%	2.8	1.9	2.6	1	0.66	-0.5
- O=C(OC(C(=O)NCc1cccs1)c1ccc(F)cc1)c1ccco1 (stereo not given)
  4%	1.3	3.1	1.0	-1	0.7	2.1
- COCCNC(=O)c1ccc(CS(=O)(=O)c2ccc(C)cc2)o1
  3%	0.4	-6.5	6.1	-2	0.68	-0.4
- O=c1cc(-c2cccc(Br)c2)oc2cccc(O)c12
  x	-4.1	4.7	1.5	-10	0.69	-1.3
- O=[N+]([O-])c1ccccc1/C=C/C=N/Nc1nc(N2CCCCC2)nc(N2CCCCC2)n1
  2%	-2.3	3.9	x	-4	x	0.2
- Cc1cccc(S(=O)(=O)Nc2ccc(-n3c(C)nc4ccccc4c3=O)cc2)c1
  4%	0.9	-5.0	-0.4	11	0.69	-0.4
- C/C(=N\NC(=O)Cc1ccc(Cl)cc1)c1ccc(F)cc1
  x	-0.9	-3.3	x	1	x	1.3

# (continued)
# The line under a structure holds: Vif TR-FRET	HNF4A DNA FP	LANA-H2B inh	UCH37 inh	B2AR ag	Ecoli growth	A1 inh
- COc1ccc(C(C#N)N2CCOCC2)cc1 (stereo not given)
  3%	1.8	-4.0	0.1	3	0.74	-0.7
- COc1cccc(/C=N/NC(=S)Nc2cccc(C(=O)O)c2)c1O
  x	-0.3	-1.6	x	1	x	-7.6
- O=C(Nc1cc([N+](=O)[O-])ccc1N1CCCC1)c1ccco1
  -2%	0.7	-1.5	14	1	0.7	0.5
- N#C/C(=C/c1ccc(F)cc1)c1nnc(NC(=O)c2ccccc2)s1
  2%	-0.6	-6.3	-57	1	0.7	-0.1
- CCn1c(=O)c2cc(C(=O)NC(C)C)sc2c2ccccc21
  -11%	4.4	1.7	-219	-11	0.71	0.3
- CCCCC(=O)Nc1c(-c2cccc(OC)c2)c(=O)c2ccccc2n1C
  2%	-1.1	2.0	-6.4	6	0.67	0.1
- C/C(Cc1ccccc1)=N\NC(=O)CNC(=O)/C=C\c1ccccc1
  u	3.3	0.5	x	-2	x	-1.0
- COc1cc(SC)ccc1C(=O)OCC(=O)NCCNC(=O)COC(=O)c1ccc(SC)cc1OC
  x	0.6	2.1	2.0	-20	0.7	0.3
- C=CCNc1nc(C(=O)OCC)nc2ccccc12
  -11%	2.2	-0.3	1.7	-2	0.69	1.5
- O=C(NNC(=S)NC(=O)c1ccccc1)c1ccc([N+](=O)[O-])cc1
  3%	-2.1	9.8	4.6	1	0.6	-1.8
- O=C(O)c1ccc(NS(=O)(=O)c2cc(Cl)ccc2Cl)cc1O
  3%	-0.9	-1.6	0.1	2	0.74	0.0
- CCOc1cccc(CN2CCC(n3nccc3NC(=O)C3CCCC3)CC2)c1
  x	-1.2	-3.1	5.4	-3	0.7	0.1
- O=C(O)c1ccc2c(c1)C(=O)N(CCc1ccccc1)C2=O
  x	-0.8	-2.2	1.1	5	0.69	-3.1
- COC(CNC(=O)C1CCN(S(=O)(=O)c2cccc3nsnc23)CC1)OC
  x	5.0	3.4	6.8	1	0.71	1.5
- O=C(CSc1nnc(NC(=O)c2ccc(F)cc2)s1)NC1CCCC1
  x	1.1	3.0	0.4	-4	0.69	-0.1

# Next part; the last 3 above are carried over.
# The line under a structure holds: Vif TR-FRET	HNF4A DNA FP	LANA-H2B inh	UCH37 inh	B2AR ag	Ecoli growth	A1 inh
- O=C(O)c1ccc2c(c1)C(=O)N(CCc1ccccc1)C2=O
  x	-0.8	-2.2	1.1	5	0.69	-3.1
- COC(CNC(=O)C1CCN(S(=O)(=O)c2cccc3nsnc23)CC1)OC
  x	5.0	3.4	6.8	1	0.71	1.5
- O=C(CSc1nnc(NC(=O)c2ccc(F)cc2)s1)NC1CCCC1
  x	1.1	3.0	0.4	-4	0.69	-0.1
- O=C(CSc1nc2cc([N+](=O)[O-])ccc2n1-c1ccccc1)NCc1ccc2c(c1)OCO2
  47µM*	-4.8	-1.3	x	1	x	-0.6
- CCCCCSc1nc2c(c(=O)[nH]c(=O)n2C)n1C
  6%	-4.3	3.8	2.8	-1	0.78	-0.7
- CCc1ccccc1NC(=S)NNC(=O)c1ccccc1Cl
  26%	-1.1	11	4.0	-3	0.72	0.2
- CC(C)Cn1cnc2c(N)nc3ccccc3c21
  x	1.4	x	1.4	-14	0.62	x
- COC(=O)C1=C(C(=O)OC)[C@@H]2N(Cc3ccccc3)c3ccccc3[C@@]23C[C@@H](C(=O)OC)N(C(=O)C2CCC2)C3=N1
  x	x	5.2	0.8	x	x	-1.5
- Cc1ccc(OCC(=O)N/N=C/C=C/c2ccco2)cc1C
  u	2.5	-5.5	x	-6	x	-0.9
- COc1ccccc1CNC(=O)C(CCSC)NC(=O)c1cccc(S(=O)(=O)N2CCOCC2)c1 (stereo not given)
  -7%	7.2	-0.9	-1.8	-1	0.65	0.0
- CN1CCN(CCCCOc2ccccc2-c2ccccc2)CC1
  16%	0.1	0.0	1.5	-3	0.68	-0.2
- Cc1ccccc1N1C(=O)c2ccccc2N2C(=O)c3ccccc3C12 (stereo not given)
  18%	-0.2	-4.6	4.0	1	0.79	-0.1
- O=C(CSc1ncccc1C(=O)O)Nc1ccc2c(c1)OCCO2
  x	3.3	0.0	x	-11	x	-1.0
- C=CCOc1ccccc1/C=C/C(=O)O
  5%	2.5	0.8	4.4	2	0.73	-0.5
- O=c1[nH]c(=S)[nH]cc1S(=O)(=O)c1cccc(Cl)c1
  -5%	-0.8	2.2	12	-3	0.67	0.3
- CC(C)C(OC(=O)CN1C(=O)COc2ccccc21)C(=O)NC1CCCC1 (stereo not given)
  16%	-0.9	-0.5	2.1	25	0.65	0.8
- O=C(CSc1nc2[nH]c(=O)cc(O)c2s1)Nc1ccc(Cl)c(C(F)(F)F)c1
  2%	4.1	x	4.9	-11	0.65	-0.3
- COCC(=O)Nc1cc(OC)c(Cl)cc1OC
  4%	5.8	-1.5	-0.2	5	0.73	1.9

# (further entries)
# The line under a structure holds: Vif TR-FRET	HNF4A DNA FP	LANA-H2B inh	UCH37 inh	B2AR ag	Ecoli growth	A1 inh
- CCC(=O)NC(NC(=S)Nc1cccc2cccnc12)C(Cl)(Cl)Cl (stereo not given)
  12%	3.8	3.7	3.5	11	0.66	0.0
- Cc1ccc(C(c2sc3nc(C)nn3c2O)N2CCOCC2)cc1 (stereo not given)
  -1%	-4.1	1.9	6.2	-1	0.7	0.7
- CC1=C(c2ccc(Cl)cc2)[N+](=O)C(C)(C)N1[O-]
  -7%	1.4	13	6.8	-2	0.69	1.0
- O=C(CSc1nnc(NC(=O)C2CC(=O)N(c3ccccc3)C2)s1)NCc1ccco1 (stereo not given)
  9%	-5.8	-1.1	-1.5	-2	0.65	0.4
- Cc1cc(Cl)c(OCCCSc2nc(C)cc(=O)[nH]2)c(Br)c1
  4%	3.8	8.2	0.1	-7	0.69	0.0
- CCc1ccc(NC(=O)CN(c2ccc(OC)cc2)S(=O)(=O)c2c(C)[nH]c(=O)[nH]c2=O)cc1
  x	1.1	x	0.7	5	0.7	x
- CN(CC(=O)Nc1ccc(Cl)c(C(F)(F)F)c1)C(=O)CNC(=O)C1CCCCC1
  -3%	-3.0	-39	2.0	6	0.64	-0.1
- CCCCNc1c(-c2cccc(-c3ccc(OC)cc3)c2)nc2ccc(C)cn12
  x	4.2	-3.1	-159	49*	0.74	0.2
- COc1ccc(S(=O)(=O)N2CCC(C(N)=O)(N3CCCCC3)CC2)cc1OC
  -4%	-1.4	0.7	1.8	-5	0.67	-0.4
- O=C(OC(C(=O)NC1CCCCC1)c1ccc(C(F)(F)F)cc1)c1ccco1 (stereo not given)
  -1%	0.9	x	0.8	-13	0.7	0.6
- NS(=O)(=O)c1cnccc1Nc1ccc(Cl)cc1
  -1%	2.0	-1.1	7.0	0	0.68	-0.5
